# Bioassay records from PubChem.
# KSHV LANA nucl – LANA-nucleosome interaction inhibition. z-score (test concentration not listed). FITC-LANA1-23 / chicken nucleosome fluorescence polarization; stronger effect = lower value. 51,000 compounds, 0.3% hits;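 active = both repeat wells score below -2 in polarization z-score versus plate sample wells, excluding overly bright wells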;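 note: 100 nL library stock added to about 30 µL; numbers are from one replicate; some results filed as inactive read as strong as hits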
#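 System – purified chicken nucleosomes with FITC-labelled LANA N-terminal peptide (1-23) · Amount – 240 nM purified chicken nucleosomes (480 nM peptide binding sites), final · Also added – 50 nM FITC-LANA1-23 probe · Medium – TEN-BT buffer, pH 7.5 · Incubation – compound with peptide–nucleosome mix 10–45 min at room temperature · Detection – fluorescence polarization, ex 480 nm, em 535 nm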
# Numbers without * were called inactive. This is a subset; rates above refer to the full screens.
SMILES,KSHV LANA nucl
CCC1C(=O)OCC1Cc1cncn1C (stereo not given),-0.24
